High-throughput results: PubChem, Broad Institute
Tgondii IFNg: T. gondii growth inhibition with IFN-gamma, primary screen, cell-based; Toxoplasma gondii growth in IFN-gamma-treated host cells; active compounds read low; reference of the scale not given here; actives 3.8% (n = 69,000); activity change, negative = inhibition, %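 (about 20 µM by stock and volumes)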;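 active = below -70%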;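 note: host cells are HeLa cells infected with Toxoplasma gondii; parasite growth read as luciferase light; one replicate is shown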
Numbers without * were called inactive; i = inactive; & = joins results of further samples. Only part of the results is shown; count on the stated rates, not on these rows.

Sample of the layout, 4 compounds:
| canonical_smiles | Tgondii IFNg |
| --- | --- |
| Cc1oc(-c2ccc(C(=O)NCCc3cccs3)cc2)nc1CN1CCN(c2ccccc2)CC1 | -32.1 |
| O=C(CC1CCS(=O)(=O)C1)NCc1cnn2ccccc12 (stereo not given) | 9.9 |
| Cc1[nH]c2ccc(CNC(=O)CCN(C)C3CCS(=O)(=O)C3)cc2c1C (stereo not given) | -2.3 |
| Cc1ccc(N2CCN(S(=O)(=O)N3CCOCC3)CC2)cc1Cl | -42.7 |

All compounds of this part, from the start:
| canonical_smiles | Tgondii IFNg |
| --- | --- |
| Cc1oc(-c2ccc(C(=O)NCCc3cccs3)cc2)nc1CN1CCN(c2ccccc2)CC1 | -32.1 |
| O=C(CC1CCS(=O)(=O)C1)NCc1cnn2ccccc12 (stereo not given) | 9.9 |
| Cc1[nH]c2ccc(CNC(=O)CCN(C)C3CCS(=O)(=O)C3)cc2c1C (stereo not given) | -2.3 |
| Cc1ccc(N2CCN(S(=O)(=O)N3CCOCC3)CC2)cc1Cl | -42.7 |
| O=C(NN1C(=O)C2C3C=CC(C3)C2C1=O)c1ccccc1 (stereo not given) | -39.5 |
| CN(C)C(=O)CC1CC2(CCN(C(=O)COc3ccccc3)CC2)Oc2ccccc21 (stereo not given) | 91.7 |
| Cc1ccc(-n2ncc3c(Nc4cccc(C(=O)O)c4)ncnc32)cc1 | 73.3 |
| CO[C@H]1CN(S(=O)(=O)c2cn(C)cn2)[C@H]2COC[C@@H]12 | -25.8 |
| c1ccc(Nc2ccc3c(C4CCCN4Cc4cccnc4)nnn3c2)cc1 (stereo not given) | -5.0 |
| O=C(O)C[C@H]1CC[C@H]2[C@@H](COC[C@H](O)CN2S(=O)(=O)c2ccc(Oc3ccccc3)cc2)O1 | -16.9 |
| O=C(c1cc(-c2ccncc2)n[nH]1)N1CCN(C(=O)c2cccc3[nH]ccc23)CC1 | 16.6 |
| CCc1c(C)[nH]n2c(=O)cc(COc3ccccc3)nc12 | -11.5 |
| CNC[C@H]1Oc2cc(C3=CCCC3)ccc2S(=O)(=O)N([C@H](C)CO)C[C@@H]1C | 119.5 |
| Cc1cc(C)n(Cc2cc(C(=O)N3CCCC3c3ccccc3C)n[nH]2)n1 (stereo not given) | 0.6 |
| COc1ccc(CCC(=O)c2c(O)cc(O[C@@H]3O[C@H](CO)[C@@H](O)[C@H](O)[C@H]3O[C@@H]3O[C@@H](C)[C@H](O)[C@@H](O)[C@H]3O)cc2O)cc1O | 17.4 |
| O=C(O)CSCC(=O)Nc1cnccn1 | -13.2 |
| CO[C@@H]1CCN(C(=O)c2ccnn2C)C[C@@H]1Cc1cccc(C)c1 | 3.9 |
| CCS(=O)(=O)Nc1ccc2c(c1)C(=O)N(C)[C@@H]1CC[C@@H](CC(=O)NCc3ccc(OC)cc3)O[C@@H]1CO2 | 21.0 |
| Cc1ccc(S(=O)(=O)NCc2cccc(OCC3CCCO3)c2)s1 (stereo not given) | 12.9 |
| COc1ccc(C)cc1C(=O)CCC(=O)N1C2CCC1CC(O)(c1ccnn1C)C2 (stereo not given) | 0.6 |
| CCc1nc(C)c(C(=O)N2CCCC3(CC2)CNC(=O)O3)o1 (stereo not given) | -0.6 |
| O=C(Oc1cccc2cccnc12)C(c1ccccc1)c1ccccc1 | -0.4 |
| Cc1ccc(-c2nc(CN3CCN(C(=O)Nc4ccc(Cl)cc4)CC3)c(C)o2)cc1 | -44.3 |
| COc1ccc2c3c([nH]c2c1)[C@H](CO)N(C(=O)Nc1cccc(F)c1)CC31CCN(S(=O)(=O)c2cccc(C)c2)CC1 | -53.8 |
| O=C(NCC1CCOCC1)[C@@H]1CN(Cc2cccc(F)c2F)[C@@H]2CCO[C@H]21 | 9.2 |
| CN1Cc2ccccc2CC1C(=O)NCCc1csc(-c2cccnc2)n1 (stereo not given) | 1.2 |
| CC(C)(C)NC(=O)C(c1ccccc1)N(C(=O)c1csnn1)c1cccc2ccccc12 (stereo not given) | -41.1 |
| O=C(Cc1cccnc1)N1CC(=O)N2[C@H](CO)[C@H](c3ccc(/C=C/c4ccccc4)cc3)[C@@H]2C1 | 1.3 |
| O=C(Cc1cccnc1)N1[C@@H](CO)[C@@H](c2ccccc2)[C@@H]1CNCC1CCC1 | -28.6 |
| O=C(C[C@H]1CC[C@H]2[C@@H](COC[C@H](O)CN2Cc2ccc3c(c2)OCO3)O1)N1CCCCC1 | -34.5 |
| O=C(c1cc2cccnc2n(Cc2ccc(F)cc2)c1=O)N1CCN(c2cccc(Cl)c2)CC1 | -119.3* |
| COc1ccc(C(c2ccccc2)N2CCN(C(=O)C(C)n3ccnc3)CC2)cc1 (stereo not given) | -0.4 |
| CN(C/C=C/c1ccco1)Cc1nc2ccc(F)cc2[nH]1 | 2.0 |
| Cc1ccc2c(c1)C(c1ccccc1)=Nc1ccc(C)cc1C(c1ccccc1)=N2 | -60.0 |
| COC(=O)[C@H]1C[C@@H](O)CCN1CC1CCOCC1 | 2.7 |
| CN(C)CC(=O)N1[C@@H](CO)[C@@H](c2ccccc2)C12CN(Cc1cccnc1)C2 | 17.1 |
| Cc1nc(-c2ccc(Cl)cc2)sc1CCNS(=O)(=O)c1ccc(F)cc1 | 166.0 |
| C#CCN(C)Cc1ccccc1 | 19.3&7.0 |
| c1ccc(NCc2cnc3n2CCN(Cc2ccco2)CC3)nc1 | 13.5 |
| Cc1cc(C2CCCN2Cc2cccc(C(=O)Nc3nccs3)c2)no1 (stereo not given) | 3.7 |
| COCCn1c2c(ccc1=O)CC(NC(=O)c1cccn1C)CC2 (stereo not given) | 2.8 |
| Clc1cc(CN2CCSCC2)c(Cl)s1 | -12.0 |
| Cc1ccc(-c2cc(C(=O)N3CCSCC3)cc(S(=O)(=O)N3CCOCC3)c2)s1 | 16.0 |
| CCCN1[C@@H]2Cn3c(ccc(-c4ccccc4)c3=O)[C@H]1[C@@H](C(=O)NCC)[C@@H]2CO | 1.7 |
| O=c1[nH]nc(-c2cccs2)cc1Cc1ccc(Cl)c(Cl)c1 | -10.5 |
| CN(C)C(=O)CN1C[C@H]2CN(c3ccsc3)C(=O)[C@@H]2C1 | i |
| C/C=C/c1ccc([C@@H]2[C@H](CO)N(CC3CC3)C23CN(C(=O)c2ccc4c(c2)OCO4)C3)cc1 | 57.5 |
| Cc1ccoc1C(=O)N1CCCn2nc(C(=O)Nc3ccccc3)cc2C1 | -37.9 |
| Cc1ncc(CC(=O)NC(C)c2ccc3c(c2)CCCC3)c(=O)[nH]1 (stereo not given) | -11.5 |
| CC1(C)CC(c2nccn2CC2CCN(C3CCCC3)CC2)CCO1 (stereo not given) | 8.6 |
| COc1cccc(-c2[nH]cnc2-c2ccccc2)c1OCCN(C)C | -15.5 |
| Cc1ccsc1/C=C/NC(=O)Nc1ccc(C(C)C)cc1 | 19.2 |
| Cc1nc(OCC(=O)Nc2ccc(Br)cc2)c2ccccc2n1 | -7.2 |
| CCc1ccc(S(=O)(=O)N2CCC3(CC2)NCCN=C3NCc2ccc(F)cc2)cc1 | -4.1 |
| O=C(c1ccco1)N1CCOC2CCC1C2Oc1ncccc1F (stereo not given) | -33.1 |
| COc1ccc(F)cc1S(=O)(=O)NCCc1csc(-c2ccc(Cl)cc2)n1 | -11.2 |
| COc1cccc(-n2cc(CNCc3nc(-c4ccco4)no3)cn2)c1 | 3.7 |
| CCn1c(=O)c(C(=O)Nc2ccc3c(c2)OCO3)c(O)c2ccccc21 | 55.9 |
| Nc1cccc(-n2ccnc2-c2ccccn2)n1 | 10.9 |
| COc1ccc(CNC(=O)C[C@H]2C=C[C@H](NC(=O)c3cccc(F)c3)[C@H](CO)O2)cc1 | 54.4 |

(more compounds)
| canonical_smiles | Tgondii IFNg |
| --- | --- |
| COc1cc(/C=C/c2nc3ccccc3c(=O)n2C)ccc1O | 9.1 |
| CC1CCN(S(=O)(=O)c2ccc3c(c2)CCC(=O)N3CC(=O)Nc2ccc(F)cc2)CC1 | -24.4 |
| CC(=O)N[C@H]1[C@H]([C@H](O)[C@H](O)CO)OC(C(=O)O)=C[C@@H]1N=C(N)N | -57.8 |
| O=C(c1nc(-c2cccc(F)c2)n2c1CCCCC2)N1CCC2(CC1)OCCO2 | 10.4 |
| O=C(Nc1nccs1)c1cn(-c2ccccc2)nc1-c1cccnc1 | -29.3 |
| CC1(c2ccccc2)OC(C(=O)O)=CC1=O (stereo not given) | 22.2 |
| C1=CCC(c2cn(Cc3ccccc3-n3cccn3)nn2)CC1 (stereo not given) | -6.3 |
| COC(=O)c1cc2n(n1)CCCN(C(=O)C/C=C/c1ccccc1)C2 | 30.8 |
| O=S1(=O)CCC=C1c1ccccc1CN1CCOCC1 | 3.6 |
| C[C@H](CO)N1C[C@H](C)[C@H](CN(C)Cc2ccncc2)Oc2ccc(NS(=O)(=O)c3ccc(F)cc3)cc2CC1=O | 33.3 |
| Cc1nc(N)nc(C)c1CCC(=O)N(C)CCN1CCCCC1 | -4.2 |
| Cc1nccn1Cc1ccccc1C(=O)NCCc1nc2ccc(Cl)cc2[nH]1 | -24.8 |
| N#Cc1cccc(N2CCCC3(CN(C(=O)[C@H]4CCCO4)CCO3)C2)c1 (stereo not given in full) | 104.2 |
| Cc1cccc(CN2CC[C@@H]3[C@H]2CCN3C(=O)c2cscn2)c1 | -1.5 |
| Cn1cc(C(CNC(=O)Nc2ccccc2F)c2cccnc2)c2ccccc21 (stereo not given) | i |
| Cc1ccc(-c2nc(NC(=O)C(C)C)sc2C)cc1 | -4.6 |
| CC(=O)N1c2ccc(S(=O)(=O)N3CCC4(CC3)Nc3cc(F)ccc3-n3cccc34)cc2CC1C (stereo not given) | -59.1 |
| O=C(Cn1c(=O)cc(C(=O)N2CCCC2)c2ccccc21)Nc1cc(F)ccc1F | 8.4 |
| C[C@@H]1CCCCO[C@@H](CN(C)CC2CC2)[C@@H](C)CN([C@H](C)CO)C(=O)c2cc(NC(=O)c3ccccc3)ccc2O1 | 12.2 |
| CCn1c(C2CCN(Cc3cccn3-c3ncccn3)CC2)nn(C)c1=O | 7.8 |
| O=C(C[C@H]1CC[C@@H]2[C@H](COC[C@H](O)CN2C(=O)Cc2ccccc2)O1)NC1Cc2ccccc2C1 | 6.4 |
| COCc1nc(NCc2cc3c(cc2OC)CCC3)c2cnn(C)c2n1 | -43.4 |
| Cc1ccc(C(=O)N2C[C@H](OCc3cccnc3)[C@@H]3OCCC[C@@H]32)o1 | -42.4 |
| O=C(O)CCc1nc2ccccc2[nH]1 | 24.1&21.9 |
| Cc1ccc2c(c1)-c1ccccc1S(=O)(=O)N2CC(=O)NC(C)C | -3.1 |
| CCOc1ccccc1-n1nnc(C(=O)Nc2nnc(CC)s2)c1C | 42.1 |
| Cc1c(C#N)sc(-c2ncn[nH]2)c1C | 24.5 |
| CC(=O)N1CCC2(CC1)OC(=O)C(C)=C2C(=O)NCC1CCCO1 (stereo not given) | 43.6 |
| CN(C)C(=O)NCC[C@@]12CCO[C@@H]1CCN(c1ncc(F)cn1)C2 | -4.2 |
| CCCC(=O)Nc1ccc2c(c1)C(=O)N(C)C[C@@H](OC)[C@@H](C)CN(C(=O)c1ccccn1)[C@H](C)CO2 | -3.9 |
| OC(CN1CCN(c2cccc(Cl)c2)CC1)C(c1ccccc1)c1ccccc1 (stereo not given) | -23.7 |
| O=C(CCCc1cn[nH]c1)N1CCC(N2CCCC(C(=O)N3CCCC3)C2)CC1 (stereo not given) | -12.5 |
| CCOc1cc(CN2CCC(n3cc(C(=O)NCC(C)C)nn3)CC2)ccc1O | 5.2 |
| N#Cc1c(C(F)(F)F)cc(-c2ccccc2)nc1SCC(N)=O | 29.8 |
| CCOCCn1nc(C)cc1C(=O)N1CCOC(c2ccc(F)cc2)C1 (stereo not given) | -1.9 |
| O=C(CO)N1CC2CCC(C1)N2C(=O)c1ccco1 | -22.4 |
| COC1C2CCC1N(C(=O)CCc1ccccc1Cl)CCO2 (stereo not given) | -3.0 |
| CN1[C@H]2CC[C@@H]1CN(C(=O)NCCc1ccccc1)CC2 | 1.0 |
| CN(C)C(C(=O)N1CCN(S(=O)(=O)N2CCOCC2)CC1)c1ccc(F)cc1 (stereo not given) | 12.9 |
| COc1cccc(C(=O)N2C[C@@H]3[C@H](c4ccccc42)[C@@H](CO)N3C(=O)c2cccc(F)c2)c1 | 0.4 |
| COc1cccc(S(=O)(=O)Nc2ccc3c(c2)C(=O)N(C)[C@H]2CC[C@H](CC(=O)NCC4CCCCC4)O[C@H]2CO3)c1 | -35.8 |
| CCCCOC(=O)Cc1c(C)[nH]c(=O)[nH]c1=O | -4.3 |
| O=C1NCC(=O)N2CCN(CC3=Cc4cc(Cl)ccc4OC3)CC12 (stereo not given) | -1.8 |
| Cc1ccc(Nc2nc3cc(C)ccc3cc2C)c(C)c1 | 6.6 |
| O=C(NCc1ccccn1)c1c(O)c2ccccc2[nH]c1=O | 84.3 |
| CCOC(=O)C1CCN(C(=O)c2ccc(-c3csc(C4CC4)n3)cc2)CC1 | 159.7 |
| CCCC(=O)Nc1ccc2c(c1)OC[C@H](C)N(CC1CCOCC1)C[C@H](C)[C@H](OC)CN(C)C2=O | 54.4 |
| CC(=O)N[C@H]1CCN(Cc2cnc(-c3ccccc3C)s2)C1 | -4.2 |
| Cc1ccc(S(=O)(=O)N2CCC3(CC2)Nc2ccc(Cl)cc2-n2cccc23)cc1C | 24.2 |
| Cc1oc(-c2ccc(C(=O)NCC3CCCO3)cc2)nc1CN1CCN(c2ccccc2)CC1 (stereo not given) | 94.6 |
| COc1ccc(CN(CCCn2ccnc2)Cc2ccc3c(c2)CCCN3C)cc1 | 4.8 |
| Cc1ccc2oc(C(=O)N3CCN4C(=O)CN(C)C(=O)C4C3)c(C)c2c1 (stereo not given) | -7.1 |
| CN1CC(=O)N(c2cnn(C)c2)CC12CCN(CC1CCOCC1)C2 (stereo not given) | -0.9 |
| O=C(COc1ccc(Cl)cc1)N1CCN(S(=O)(=O)c2cc3c4c(c2)CCN4C(=O)CC3)CC1 | 12.1 |
| Cc1cccc(OCC(=O)N2CCC[C@@H]2C(=O)NCCc2csc(-c3ccccc3)n2)c1 | 4.7 |
| CC(C)CCCC1CN(C(=O)c2cnc(C(C)C)[nH]c2=O)CCO1 (stereo not given) | 7.5 |
| Cc1nsc(NC(=O)N2CCCN(c3ccc(F)cc3)CC2)n1 | 7.9 |
| COc1ccc2c3c([nH]c2c1)[C@H](CO)N(Cc1ccc(Cl)cc1)CC31CCN(Cc2nccs2)CC1 | -34.7 |
